miR-21 FLuc: miR-21 reporter, rising signal; HeLa miR-21 FLuc reporter, luciferase, 48 h; Potency, µM (top dose mostly 38.3 µM), without a hit: top-dose reporter change, positive = more light; 340,000 tested, under 10 active; AID 2288; active = well fitted rising curve with a large enough effect; inconclusive = small, poorly fitted or top-dose-only effect; inactive = no such curve, though single readings can be large or run the other way;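 further: % of control where 0% means no effect; miR-21 action dims this reporter so a rising signal means less miR-21 action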
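HeLa cells stably expressing CMV-driven firefly luciferase with a downstream miR-21 binding sequence, endogenously expressing miR-21, were treated with titrations (up to about 40uM final) for 48 hours at 37 degree Celsius. Luciferase luminescence was read after lysis.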
* marks the source's active call; other numbers are inactive results; u = inconclusive.

SMILES	miR-21 FLuc
COc1ccccc1N1CCN(S(=O)(=O)c2c(C)sc3ncn(CC(=O)N(C)c4ccc(Cl)cc4)c(=O)c23)CC1	28.0%
Cc1ccc(-c2nc(-c3cc4cccc(OCc5ccccc5F)c4oc3=O)no2)cc1	-2.4%
CCOC(=O)c1cccc(NC(=O)C2CCN(S(=O)(=O)c3cn(C)cn3)CC2)c1	5.7%
COc1ccc2cc(C(=O)NCc3ccc4c(c3)CCN4C(=O)c3ccc(F)cc3)[nH]c2c1	23.6%
Cc1ccc(CNC(=O)Cc2ccc(NC(=O)N3CCSc4ncccc43)cc2)cc1	-6.3%
Cc1ccccc1OCc1nnc(SCc2cc(=O)c3cccc(F)c3[nH]2)n1C	15.4%
Cc1ccc2c(c1)-c1onc(C(=O)N3CCN(c4cc(Cl)ccc4C)CC3)c1CO2	-18.4%
Cn1c(=O)n(C)c2cc(CNCc3ccccc3)ccc21	3.0%
CSc1cccc(NS(=O)(=O)c2ccc3[nH]cc(C(=O)N4CCCCCC4)c(=O)c3c2)c1	-3.6%
CCN(CC)S(=O)(=O)c1ccc(C(=O)NCCSc2c(-c3ccc(F)cc3)[nH]c3ccccc23)cc1	u
CCOc1ccccc1NC(=O)C(=O)c1cc(C)n(-c2cccc(C)c2C)c1C	-15.2%
O=S(=O)(Nc1cc(F)ccc1F)c1ccc2[nH]c3c(c2c1)CCCC3	6.8%
Cc1ccc(CNC(=O)N2CCC(CN3CCC(C)CC3)CC2)cc1	-2.0%
Cc1cc(C(=O)NCc2ccccc2)c2c(C)nn(-c3cccc(F)c3)c2n1	-1.5%
CCOC(=O)Cn1c(=O)n(CC2CCCO2)c2nc(-c3cccc(C)c3)nc(C(N)=O)c21 (stereo not drawn)	0.7%
CCCN1Cc2cccc(C(=O)Nc3ccc(OC)cc3OC)c2C1=O	-15.0%
CN1C(C(=O)c2ccccc2)=C(OC(=O)c2ccc(Br)cc2)c2ccccc2S1(=O)=O	22.1%
COc1ccc(C2=NC(C)(C)N(CC(=O)Nc3cc(OC)cc(OC)c3)C2=O)cc1	u
COc1ccc(NC(=O)Cn2cnc3ccc(S(=O)(=O)N4CCC(C)CC4)cc3c2=O)c(OC)c1	-4.0%
O=C(NCCSc1c[nH]c2ccccc12)c1ccccc1Cl	-0.7%
CC(=O)C1=C(c2ccc(Cl)c(Cl)c2)N(C(C)=O)n2cnnc2S1	-6.0%
Cc1ccc(N(C)S(=O)(=O)c2ccc3[nH]c(=O)ccc3c2)cc1	8.4%
COc1ccc(OC)c(NC(=O)CCc2c(C)nn(-c3ccc(N4CCCC4)nn3)c2C)c1	27.5%
CCOc1ccccc1Oc1nc(C)nc2c1oc1ccccc12	u
Cc1ccc(OCC(=O)Nc2ccc(-c3nc4ccccc4o3)cc2)c(C)c1	-14.8%
COc1ccc(CNC(=O)c2ccc(NC(=O)N3CCSc4ncccc43)cc2)cc1	-9.6%
Cc1nc2nc(CNC(=O)OC(C)(C)C)nn2c(C)c1CCC(=O)NCc1ccccc1Cl	-3.2%
O=S(=O)(c1ccc2[nH]c3c(c2c1)CCCCC3)N1CCN(c2cccc(Cl)c2)CC1	25.0%
NS(=O)(=O)c1ccc(NC(=O)CN2C(=O)COc3ccc(Cl)cc32)cc1	-9.5%
CNC(=O)c1cnc2sc(N3CCCCCC3)nn2c1=O	1.3%
CCC(Sc1nc2nccnc2c(=O)n1Cc1ccccc1Cl)C(=O)NC1CCCCC1 (stereo not drawn)	-1.5%
O=C(NCc1cccc(Cl)c1)c1ccc2c(c1)nc1n2CCOC1	-34.4%
CSc1ccc(/C=C/c2nc3ccccc3n2S(=O)(=O)c2cccc(Cl)c2)cc1	u
CCN(CC)CCOC(=O)c1ccc(Nc2c3c(nc4ccccc24)CCC3)cc1	18.9%
CCN(Cc1ccccc1)C(=O)Cn1c(=O)n(Cc2ccccc2)c(=O)c2c1c1cc(OC)ccc1n2C	4.3%
O=C(Nc1nnc(SCc2cc(=O)c3ccccc3[nH]2)s1)c1ccccc1	-0.3%
COc1ccc(Cl)cc1-n1nnc(-c2nc(-c3ccc4c(c3)OCO4)no2)c1C	-5.6%
O=C(CSc1nc2ccccc2nc1Cc1ccccc1F)Nc1cccc(C(F)(F)F)c1	-8.3%
CCC(=O)Oc1c(Sc2ccc(C)cc2)c(C)nn1-c1ccccc1	6.6%
CN(C)c1ccc(-c2nc(-c3cccs3)c(-c3cccs3)[nH]2)cc1	28.8%
CN1CCN(Cc2c(O)ccc3cc(-c4ccccc4)c(=O)oc23)CC1	-0.6%
Cc1ccc(S(=O)(=O)c2cn(CC(=O)Nc3ccc4c(c3)OCO4)c3ccccc3c2=O)cc1	0.3%
O=S(=O)(NCCS(=O)(=O)N1CCN(c2cccc(Cl)c2)CC1)c1ccc(F)cc1	6.4%
COC(=O)c1c(NC(=O)Cc2coc3ccc(C)cc23)sc2c1CCC2	-0.4%
COc1cc(OC)c(C2CC(=O)Nc3ccc4ccccc4c32)cc1OC (stereo not drawn)	1.5%
CCCCNC(=O)CCCCCn1c(=O)[nH]c2ccccc2c1=O	-9.3%
CCCCN1C(=O)C(O)(CC(=O)c2ccc(C)cc2C)c2cc(Br)ccc21 (stereo not drawn)	27.7%
O=C(NCc1ccc(Cl)cc1)C(=O)NCC(c1cccs1)S(=O)(=O)c1ccc(Cl)cc1 (stereo not drawn)	11.3%
CCOCCCNC(=O)c1[nH]c2cc(OC)ccc2c1Sc1ccccc1	u
CC(C)(Oc1ccc(Cl)cc1)C(=O)Nc1ccc(-c2nc3ncccc3o2)cc1	-14.6%

Further structures follow.
SMILES	miR-21 FLuc
CC(=O)N1CCCc2cc(S(=O)(=O)N(C)CC(=O)Nc3ccc(F)cc3Cl)ccc21	5.9%
O=C(CSC1=Nc2ccccc2N=C(c2ccc(F)cc2)C1)Nc1cc(F)ccc1F	-20.1%
CC(=O)Nc1ccc(NS(=O)(=O)c2cc3c4c(c2)CC(=O)N4CCC3)cc1	-8.7%
COc1ccc(S(=O)(=O)c2c(Nc3cccc(C)c3C)sc(C(=O)c3ccccc3)c2N)cc1	u
Cc1cc(C)n(CCC(=O)Nc2ccc(Cl)cc2)n1	-12.7%
Cc1ccc(Cn2c(CN3CCC(C(=O)NCC(C)c4ccccc4)CC3)cc3ccccc32)cc1 (stereo not drawn)	u
Cc1cc(CN2CCN(c3ccc(F)cc3)CC2)cs1	1.4%
CCn1ccc2cc(S(=O)(=O)N3CCCN(C(=O)NCC(=O)OC)CC3)ccc21	1.0%
CC(C)OCCCNC(=O)c1cc2c(-c3ccc(Cl)cc3)nn(C)c2s1	23.4%
Cc1cccc(N2CCN(C(=O)c3cc4c(=O)n(C)c5ccccc5c4s3)CC2C)c1 (stereo not drawn)	-0.9%
Cc1cc(Br)ccc1NC(=O)C1CCN(S(=O)(=O)c2ccc(Br)s2)CC1	0.6%
Cc1ccc(C)c(NC(=O)CN2C(=O)c3cccnc3Oc3ccc(C)cc32)c1	1.3%
O=C(Nc1ccc(F)cc1)c1csc2c1CCCCC2	-23.7%
CCCCOc1ccccc1C1CC(=O)Nc2ccc3ccccc3c21 (stereo not drawn)	27.0%
CC1CCN(S(=O)(=O)c2ccc3c(c2)N(CC(=O)NCCc2ccccc2)C(=O)CO3)CC1	-6.7%
Fc1ccc(-n2ncc3c(NCCC4=CCCCC4)ncnc32)cc1	-45.7%
COc1ccc(NC(=O)Nc2cccc(-c3noc(C)n3)c2)cc1	-15.8%
Cc1cccc(S(=O)(=O)c2cn(Cc3ccc(F)cc3)c3cc(N4CCOCC4)c(F)cc3c2=O)c1	-2.0%
C=Cc1ccc(Cn2nc(-c3ccc(C)c(S(=O)(=O)N(CC)CC)c3)ccc2=O)cc1	-7.3%
CCOC(=O)c1cccc(NC(=O)C(CC(C)C)N2Cc3ccccc3C2=O)c1 (stereo not drawn)	16.5%
Cc1c2cnn(CC(=O)O)c(=O)c2c(C)n1Cc1cccc(Cl)c1	3.5%
CCN1CCN(Cc2c(O)ccc3cc(-c4ccc(OC)cc4)c(=O)oc23)CC1	-37.0%
COc1cc(NS(=O)(=O)c2cc(Br)cc3c2N(C(C)=O)C(C)C3)cc(OC)c1 (stereo not drawn)	16.2%
O=C(CCc1cn(Cc2ccccc2F)c2ccccc12)NCc1ccc(Cl)cc1	0.1%
O=C(c1cc2cc3ccc(Cl)cc3nc2o1)N1CCN(c2cccc(Cl)c2)CC1	-11.2%
COc1cc2c(cc1NC(=O)COc1ccc(Cl)cc1Br)oc1ccccc12	-1.6%
Cc1ccc(S(=O)(=O)N(CC(=O)Nc2ccc(Cl)cc2Cl)c2ccccc2C)cc1	23.4%
Cc1ccc(NC(=O)C2CCN(C(=O)c3sc4nc[nH]c(=O)c4c3C)CC2)cc1F	-12.9%
CCC1=Nc2cc(C(=O)NCc3ccc(C)cc3)ccc2Sc2ccc(C)cc21	20.8%
COCCCNC(=O)C1CCN(c2cc(C)nc3c(-c4ccc(OC)c(OC)c4)c(C)nn23)CC1	15.1%
COc1ccc(Cn2c(SCC(=O)N3CCN(c4ccc(F)cc4)CC3)nc3ccccc32)cc1	-1.8%
Cc1ccc(N(CC(=O)NCCc2ccc(Cl)cc2)S(=O)(=O)N(C)C)cc1	-2.7%
CCc1ccc(-n2c(=O)c3c4c(sc3n(CC(=O)NCCCOC)c2=O)CCC4)cc1	0.5%
CCc1ccc(-c2[nH]nc3nc(-c4ccc(OC)cc4)cc(C(=O)NCCc4ccc(OC)c(OC)c4)c23)cc1	8.3%
Cc1cc(C)cc(NC(=O)CSc2oc(-c3ccccc3)nc2S(=O)(=O)c2ccccc2)c1	7.3%
CCS(=O)(=O)N1CC(=O)N(c2cc(C)cc(C)c2)C(C)(C(=O)NC2CCCCC2)C1 (stereo not drawn)	-2.9%
CC(=O)c1cccc(NC(=O)c2cc(-c3ccc4c(c3)OCCO4)on2)c1	10.7%
O=C(NCc1ccc(F)cc1)c1cc2c(=O)n3ccccc3nc2s1	-11.5%
COc1ccc(C(C(=O)NCc2ccccc2)N(C(=O)Cn2nnc3ccccc32)c2ccc(OC)cc2)cc1 (stereo not drawn)	-7.3%
O=C(c1cc(-c2ccc(Br)cc2)n[nH]1)N1CCN(S(=O)(=O)c2ccc(Cl)s2)CC1	-8.7%
CCOc1ccc(NC(=O)CN2C(=O)C(c3ccc(Cl)cc3)=NC2(C)C)cc1	6.3%
COc1ccc(NC(=O)CN(c2ccc(C)cc2)S(=O)(=O)c2cccs2)cc1OC	-5.5%
Cc1cc(C)c(NC(=O)Cn2c(=O)nc(-c3ccccc3)c3cc(Cl)ccc32)c(C)c1	-2.3%
Cc1ccc(SCC(=O)Nc2ccc3oc(-c4cccc(C)c4)nc3c2)cc1	-14.1%
CCOC(=O)C(CC)Sc1ccc2nnc(CCNS(=O)(=O)c3ccc(C)cc3)n2n1 (stereo not drawn)	-6.9%
CCN(CC)S(=O)(=O)c1ccc(NC(=O)c2c(C)oc3ncnc(N4CCOCC4)c23)cc1	3.8%
CC(=O)N1CCCc2cc(S(=O)(=O)N3CCC(C(=O)NCc4ccccc4Cl)CC3)ccc21	16.8%
Cc1cccc(NC(=O)Cn2nnc(C(=O)Nc3ccccc3Br)c2N)c1C	-3.1%
CCOc1ccc(OCC)c(NC(=O)c2cc(-c3cccs3)nc3ccccc23)c1	1.5%
COc1cccc(CNC(=O)C(C)n2c(=O)cc(-c3ccccc3)c3c(C)nn(C)c32)c1 (stereo not drawn)	-6.5%

Fetched by structure from the list above:
SMILES	miR-21 FLuc
CCOC(=O)c1cccc(NC(=O)C(CC(C)C)N2Cc3ccccc3C2=O)c1 (stereo not drawn)	16.5%
Cc1ccc(SCC(=O)Nc2ccc3oc(-c4cccc(C)c4)nc3c2)cc1	-14.1%
COc1ccc(C(C(=O)NCc2ccccc2)N(C(=O)Cn2nnc3ccccc32)c2ccc(OC)cc2)cc1 (stereo not drawn)	-7.3%
CCN(Cc1ccccc1)C(=O)Cn1c(=O)n(Cc2ccccc2)c(=O)c2c1c1cc(OC)ccc1n2C	4.3%
CC(C)OCCCNC(=O)c1cc2c(-c3ccc(Cl)cc3)nn(C)c2s1	23.4%

The results go on.
SMILES	miR-21 FLuc
CCCCn1c(=O)c2oc3ccccc3c2n(CC(=O)Nc2ccc(CC)cc2)c1=O	-2.7%
COc1ccc(CNS(=O)(=O)c2ccc3c(c2)C(C)(C)C(=O)N3C)cc1OC	2.5%
Cc1ccc(S(=O)(=O)Nc2ccc(-c3ccc(N4CCCCCC4)nn3)cc2)cc1C	-5.1%
CCOCCCNC(=O)c1ccc2c(=O)n(CCc3ccccc3)c(=O)[nH]c2c1	-18.8%
CCn1c(=O)c2cc(C(=O)N(CCN(C)C)Cc3ccccc3)sc2c2ccccc21	-7.6%
Cc1cccc(C(=O)Nc2ccc(N3CCC(CCN4CCOCC4)CC3)c(C(=O)O)c2)c1	2.0%
CCOC(=O)C1(C)C=C(Nc2ccc(Br)cc2)C(=O)N1c1ccccc1 (stereo not drawn)	-3.8%
COc1ccc(NC(=O)c2c(NCc3sccc3C)sc3c2CCCC3)c(OC)c1	6.2%
Cc1nn(C)c(C)c1S(=O)(=O)N(CC(=O)NCCc1ccc(Cl)cc1)c1ccc(C(C)C)cc1	-2.8%
Nc1c(C(=O)Nc2ccc(Cl)c(C(F)(F)F)c2)sc2nc(-c3ccncc3)ccc12	-7.7%
O=C(c1cccn2c(=O)c3cc(Cl)ccc3nc12)N1CCN(c2ccccc2F)CC1	2.7%
O=C(Nc1ccc(F)cc1F)C1CCN(C(=O)c2cnn(-c3ccccc3)c2-n2cccc2)CC1	u
CCc1ccc(NC(=O)C(=O)NCCc2sc3nc(-c4ccc(OC)cc4)nn3c2C)cc1	-11.1%

A portion of the library; rates above refer to the full screens.
